# Source: PubChem
# MT1-MMP act inh = inhibitors of human MT1-MMP activation | P50281 | HT1080 RFP-PRO-GFP cells, GFP/RFP ratio fluorescence, overnight; percent of plate control window, DMSO zero | GFP/RFP ratio change, % at 20 µM | 360,000 tested, 0.061% active | AID 651647;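 active means GFP/RFP ratio change of at least 30% with cell ATP level not reduced by more than half and red fluorescence within 50% of control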; further: strong numbers were not always called active
#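 Assay system: HT1080 cells carrying an RFP-PRO-GFP reporter | Dosing: Single dose of 20 µM compound, 1% DMSO final | Incubation: Cells overnight before dosing, compound overnight, 37 °C, 5% CO2 | Evaluation: GFP/RFP fluorescence ratio | Control set: DMSO and RFP-L50D-GFP cell wells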
# Env fusion inh = HIV envelope-mediated fusion inhibition; HeLa-JRFL Env/CEM21 cell fusion, luciferase; 360,000 tested, 1.1% active; inhibition, % at 12.3 µM;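 active means mean replicate inhibition score of at least 50 and every replicate individually at or above 50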;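 further: 0% = plate neutral controls and 100% = maraviroc near 300 nM; one replicate is shown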
# Rce1 inhib = blocks yeast Ras-converting enzyme | Q03530 | yeast membranes, quenched prenylated peptide cleavage fluorescence | calls only | 290,000 tested, 0.27% active;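 active means fall in fluorescence gain of 50% or more versus controls, with final raw signal at or below 3038400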;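 further: plate controls were neutral control wells for no effect and wells lacking membranes for full effect; tested at 10 µM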
# Target sequence (Q03530 whole entry, looked up): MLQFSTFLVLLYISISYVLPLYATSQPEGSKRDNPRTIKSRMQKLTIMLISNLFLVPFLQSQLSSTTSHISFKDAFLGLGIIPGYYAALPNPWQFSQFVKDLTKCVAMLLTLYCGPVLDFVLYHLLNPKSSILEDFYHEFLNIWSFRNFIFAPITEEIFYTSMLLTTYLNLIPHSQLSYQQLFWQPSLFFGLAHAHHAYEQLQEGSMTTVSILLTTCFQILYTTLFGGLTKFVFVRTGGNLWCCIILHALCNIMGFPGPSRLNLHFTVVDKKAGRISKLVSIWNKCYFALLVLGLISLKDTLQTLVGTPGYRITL
# Yeast UUG start = yeast start codon fidelity modulation; S. cerevisiae UUG-firefly luciferase reporter, luminescence/redox ratio; activity score, % at 18.7 µM; 350,000 tested, 0.13% active; AID 602363;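 active means replicate mean at a twofold rise or more, about +100% in these data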;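 further: firefly luciferase made from a UUG start codon reports start codon fidelity; reporter light over untreated wells divided by growth signal over untreated wells; some hits fall short of that in this replicate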
# eIF4H inh = inhibitors of RNA binding by human eIF4H | AID 2012 | eIF4H fluorescence polarization binding assay | Q15056 | 290,000 tested, 0.94% active | inhibition, % at 35 µM;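 active means 50% or more with normal probe brightness, or confirmed in later tests; about a fifth of its hits are not listed in these tables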;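 further: calls also rest on retests at 20 µM and on dose response follow-up; 0% = protein and probe with vehicle and 100% = probe without protein; strong numbers were not always called active; many hits fall short of the cut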
# PABP polyA inh = blocks human PABP binding to poly(A) RNA. fluorescence polarization. AID 2014. 290,000 tested, 1% active. inhibition, % at 35 µM. P11940;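 active means 50% or more with normal probe brightness, or confirmed in later tests; about a fifth of its hits are not listed in these tables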;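 further: calls also rest on retests at 20 µM and on dose response follow-up; controls were probe without protein and protein plus probe with vehicle; some compounds called inactive have numbers as strong as hits; many hits fall short of the cut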
# Target sequence (P11940 whole entry, looked up): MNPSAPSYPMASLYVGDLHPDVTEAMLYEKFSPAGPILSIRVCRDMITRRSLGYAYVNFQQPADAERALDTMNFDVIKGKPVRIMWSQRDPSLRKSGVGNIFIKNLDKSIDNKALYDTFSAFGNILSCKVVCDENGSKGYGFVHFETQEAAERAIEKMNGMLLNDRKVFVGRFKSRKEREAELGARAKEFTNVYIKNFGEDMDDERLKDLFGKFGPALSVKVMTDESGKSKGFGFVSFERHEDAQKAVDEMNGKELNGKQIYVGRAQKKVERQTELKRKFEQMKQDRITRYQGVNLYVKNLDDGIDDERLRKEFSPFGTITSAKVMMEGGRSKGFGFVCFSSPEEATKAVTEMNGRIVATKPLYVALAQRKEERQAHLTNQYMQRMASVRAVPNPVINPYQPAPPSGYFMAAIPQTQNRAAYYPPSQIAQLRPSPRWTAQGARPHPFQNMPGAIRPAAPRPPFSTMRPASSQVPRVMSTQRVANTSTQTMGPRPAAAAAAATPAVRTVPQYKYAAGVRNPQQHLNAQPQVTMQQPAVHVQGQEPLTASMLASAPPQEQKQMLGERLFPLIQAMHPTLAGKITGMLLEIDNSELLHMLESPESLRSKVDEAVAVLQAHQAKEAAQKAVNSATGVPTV
# CSC inhib = blocks cancer stem cells. AID 2717. 300,000 tested, 1.1% active. inhibition, % at 7.5 µM. cancer stem cell-like cells viability, luminescence;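 active means mean at 75% or more and at least half the replicates too; tested in HMLE shEcad cells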;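 further: 0% = median of negative and 100% = median of positive control wells; the first replicate is given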
# eIF4H inh retest = second read-out of eIF4H inh, no call of its own (marks repeat the call); inhibition, %; compound at 20 µM; confirmation average;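 mean of two retest wells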
# PABP polyA inh retest = second read-out of PABP polyA inh, no call of its own (marks repeat the call); inhibition, %; compound at 20 µM; confirmation repeats;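 mean of two retest wells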
# MT1-MMP act inh RFP = second read-out of MT1-MMP act inh, no call of its own (marks repeat the call); RFP signal change, %; measured here: RFP expression control read;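 0 = vehicle wells; hits needed this value within 50% of zero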
# The depositor's hits bear a star; i = inactive; . = not tested or not shown.
SMILES,MT1-MMP act inh,MT1-MMP act inh RFP,Env fusion inh,Rce1 inhib,Yeast UUG start,eIF4H inh,PABP polyA inh,CSC inhib,others
COc1ccccc1NC(=O)c1oc2ccccc2c1NC(=O)c1cc(OC)c(OC)c(OC)c1,4,-1,.,i,-14,.,.,61,
O=C1CC(c2cccc(Cl)c2)Cc2nc(N3CCN(c4ccccc4)CC3)ncc21 (centres undefined),-1,-5,.,i,0,8,7,3,
COc1ccc(C2C(C#N)=C(N)OC3=C2C(=O)CC(C)(C)C3)cc1OC (centres undefined),5,7,7,i,.,-4,-6,-7,
CCSc1nc2ccccc2c(=O)n1OCC(=O)OC,1,2,-4,i,-11,6,-6,-12,
CC1(C)C2CC=C(/C=N/NC(=S)NCCc3ccccc3)C1C2 (centres undefined),-6,-9,67*,i,.,0,-4,12,
Cc1ccc(C)n1NC(=O)c1ccc([N+](=O)[O-])cc1,-2,-4,-7,i,-22,0,-2,-5,
Cc1nnc(SCCCOc2ccccc2)nc1C,5,7,-13,i,-7,.,.,9,
CCS(=O)(=O)N1Cc2ccccc2CC1C(=O)Nc1ccc(C)cc1 (centres undefined),-4,2,-152,i,-3,0,-9,0,
COc1ccc(NC(=O)CN(C)C(=O)c2cc(-c3ccco3)nc3ccccc23)cc1,7,2,17,.,-14,.,.,-5,
CCC(CC)C(=O)N(C)c1c(C)nc2c(OCc3ccc(C#N)cc3)cccn12,-1,3,1,.,-17,.,.,.,
O=C(N/N=C/C=C/c1ccccc1)c1cccnc1,1,0,-19,i,-15,2,-8,-9,
COc1cc(C2C(C#N)=C(N)Oc3cc(C)oc(=O)c32)cc2c1OCO2 (centres undefined),-10,-2,-40,i,41,69*,50*,-10,eIF4H inh retest=86*;PABP polyA inh retest=58*
CN1CCN(S(=O)(=O)c2cccc(C(=O)Oc3cccc(Br)c3)c2)CC1,1,2,-3,i,-7,.,.,-10,
COCCN(CCOC)C(=O)CC(=O)N(CCOC)CCOC,2,0,-49,i,-16,11,-3,-11,
COC(=O)c1ccc(S(=O)(=O)N2CCCCCC2)cc1,-2,0,-12,i,-12,3,-6,4,
CC(c1ccccc1)C1C(C#N)=C(N)OC2=C1C(=O)CCC2 (centres undefined),-1,0,.,i,-7,1,-7,-13,
O=C(NCCc1ccccc1)C(=O)c1c(-c2ccccc2)cc2ccccn12,3,1,3,i,.,-2,-6,10,
CCn1c(CC(=O)Nc2ccccc2F)nnc1SCC(=O)NC1CCCC1,-5,-2,-5,i,-21,-6,4,-7,
Cc1cccc(S(=O)(=O)c2c(N)n(/N=C/c3cccnc3)c3nc4ccccc4nc23)c1,7,-5,.,i,-22,-3,2,-8,
CN(C)C(=O)c1cc(C(=O)Cc2ccccc2)c[nH]1,1,2,0,i,-4,1,-4,-3,
Cc1cccc(N2CCN(CC(O)COc3ccc4ccccc4c3)CC2)c1 (centres undefined),2,0,18,.,-8,.,.,.,
Cc1ccc(C(=O)OCC(=O)NCCN2C(=O)CSC2=O)cc1[N+](=O)[O-],-1,2,.,.,-12,.,.,-7,
O=C(Nc1cccc2ccccc12)c1csc([C@@H]2C[C@H](O)[C@@H](CO)O2)n1,0,-1,8,.,-4,.,.,.,
CCc1csc(CCNC(=O)C2CCC(=O)N(CCc3cccc(F)c3)C2)n1 (centres undefined),-1,3,6,i,9,-7,-2,6,
CC(/C=C/c1ccco1)=N/NC(=O)c1ccc(C)nc1,3,6,1,i,-24,0,-8,-2,
SMILES,MT1-MMP act inh,MT1-MMP act inh RFP,Env fusion inh,Rce1 inhib,Yeast UUG start,eIF4H inh,PABP polyA inh,CSC inhib,others
CCc1cccc(CC)c1NC(=O)CN1CCc2cc(OC)c(OC)cc2C1,-6,-25,.,i,-9,5,8,-11,
CCOc1c(CNc2nnnn2C)cccc1OC,-1,-2,-5,i,45,2,-12,4,
O=C(COC(=O)c1ccccc1NCc1ccco1)Nc1ccc2c(c1)OCO2,-1,1,.,i,-24,7,6,2,
COc1cccc(/C=C2\Oc3cc(OCC(=O)N4CCC[C@H]4C(=O)O)ccc3C2=O)c1,5,7,.,i,-9,15,15,5,
Cc1ccc(/C=N/NC(=O)Cc2cccn2C)cc1,-2,4,-13,i,.,4,6,0,
CCc1cc(=O)oc2cc(OC(C)C(=O)NCc3ccccn3)ccc12 (centres undefined),4,6,5,i,-23,-2,-1,2,
Clc1cccc(-c2nn3c(Cn4cnc5ccccc54)nnc3s2)c1,3,5,.,i,.,1,7,4,
CCCCn1c(-c2csc(C(C)C)c2)n[nH]c1=S,-5,-2,-25,i,-6,12,8,5,
COc1ncnc2sc3c(c12)CCCC3,-6,-1,9,i,.,-2,1,-11,
COc1cc(C(=O)NCCOC(=O)c2cccc(N(C)C)c2)cc(OC)c1OC,1,5,-6,i,-8,-7,-8,-7,
COCCN(C(=O)Cc1csc(-c2cccc(Cl)c2)n1)c1c(N)n(Cc2ccccc2)c(=O)[nH]c1=O,0,-1,-5,.,3,.,.,.,
NC(=O)c1ccccc1OCC(=O)NS(=O)(=O)c1ccc(Cl)cc1,22,6,-41,i,-9,-12,-3,11,
Nc1nc(-c2cc(Cl)cc(Cl)c2OC(F)F)cs1,0,2,4,i,.,-8,-13,-13,
CC(=O)Nc1ccc(CN2CCN(Cc3ccc(F)c(F)c3)C(CCO)C2)cc1 (centres undefined),1,0,14,i,.,13,-2,-3,
CCOC(=O)C1C(C(=O)OCC)C2C(=O)C3C(C(=O)OCC)C(C(=O)OCC)C3C(=O)C12 (centres undefined),5,-1,28,.,-37,.,.,.,
COc1cc2c(cc1OC)CN(C(=O)NS(=O)(=O)c1ccc(C)cc1)CC2,0,2,-22,i,-10,-8,-7,3,
Cn1nc(CC(=O)Nc2cccnc2N2CCOCC2)c2ccccc2c1=O,.,.,.,i,.,1,7,.,
CCN(CC)S(=O)(=O)c1ccc(N2CCCCC2)c(NC(=O)C2=COCCO2)c1,-2,-7,29,i,-1,.,.,-4,
Cc1nc2ccccc2n1C1CCN(C(=O)Nc2ccccc2)CC1,0,3,13,i,-11,-6,-8,2,
COc1cccc(OC)c1OC(=O)/C=C/c1ccc(C)o1,-3,-1,-1,i,-21,8,2,-2,
N#Cc1ccccc1OCC(=O)N1CCN(C(=O)c2ccco2)CC1,2,3,-6,i,-4,7,6,-18,
COc1ccc(CC(=O)Nc2ccccc2C(=O)N2CCCC2)cc1,0,-1,-3,i,-14,-12,-3,-8,
N/C(=N\NS(=O)(=O)c1ccccc1)c1ccccn1,1,5,-2,i,-26,.,.,-10,
O=c1[nH]c2ccccc2[n+]([O-])c1-c1ccccc1,1,-1,7,i,-4,-4,13,-14,
CCOC(=O)CC1COCCN1Cc1cn(C)nc1-c1ccccc1F (centres undefined),-5,-5,-1,i,.,-8,0,-5,
SMILES,MT1-MMP act inh,MT1-MMP act inh RFP,Env fusion inh,Rce1 inhib,Yeast UUG start,eIF4H inh,PABP polyA inh,CSC inhib,others
NC(=O)C1CCN(c2nnnn2-c2ccccc2)CC1,2,4,.,i,.,-5,-7,-1,
COC(=O)/C(=C\C(=O)c1ccccc1)Nc1ccc(OC)cc1,1,4,-10,i,.,-11,-4,30,
O=C(/C=C/c1ccc(OCCCF)cc1)NCc1ccc(Cl)cc1,2,0,.,i,-16,-4,-5,7,
CC(O)C1CCC2C3CC[C@H]4CC(O)CCC4(C)C3CC3(OCCO3)C12C (some centres undefined),0,-3,-41,i,21,-6,-15,-13,
COc1ccc(N2CCN(S(=O)(=O)CCNC(=O)CCCc3ccccc3)CC2)cc1,1,-3,.,i,.,.,.,2,
O=C(NC(=S)NC1CCCc2ccccc21)c1ccco1 (centres undefined),-3,0,1,i,.,8,2,64,
CC(C)CNC(=O)CCc1c[nH]c2ccccc12,1,1,.,.,-17,1,1,0,
Cc1cnccc1CN(C)Cc1cn(C)nc1-c1cccc(Cl)c1,-2,3,12,i,-4,-4,-4,-7,
O=C(c1ccncc1)N1N=C2CCCCCC2C1(O)C(F)(F)F (centres undefined),2,4,10,.,.,0,0,-6,
O=C(O)CSc1nnc2n(-c3ccccc3)c(=O)c3ccccc3n12,0,2,-4,i,-16,-3,-9,2,
CC1CCCCC1NC(=O)C1CCN(S(=O)(=O)c2cccc3nsnc23)CC1 (centres undefined),0,0,.,i,-16,1,-1,-2,
CN(C)c1cccc(C(=O)NCc2ccccc2Cl)c1,-1,-3,9,i,.,-8,10,-12,
O=C(Oc1cccc2c(O)cccc12)c1ccccc1,-5,-4,.,i,-14,1,8,16,
COc1ccc(Cl)cc1NC(=O)CN(C)CC(=O)Nc1ccccc1-c1ccccc1,1,-7,63*,i,-8,-16,-5,26,
COC(=O)/C(=C/Nc1ccccc1)[N+](=O)[O-],3,-1,-52,i,.,-5,14,.,
O=S(=O)(Nc1ccc(S(=O)(=O)Nc2nccs2)cc1)c1ccc(Br)cc1,-1,2,3,i,6,4,3,-1,
CCCCCCOC(=O)C[N+](C)(C)CCOC1CC2CCC1(C)C2(C)C (centres undefined),-4,-1,-80,i,-21,1,4,-6,
Cc1ccc(NC(=O)C(=O)NNC(=O)c2ccccc2C)cc1Cl,4,0,-188,i,-12,5,-5,-5,
CCc1ccc(NC(=O)CCn2c(=O)c3cccn3c3ccccc32)cc1,-1,-4,-3,i,14,-6,-9,22,
CCOc1ccc(CCNC(=O)c2nnn(CC(=O)Nc3ccccc3C)c2N)cc1OCC,-1,-2,8,i,-18,-9,1,3,
Cc1ccc(S(=O)(=O)NCCn2cnc([N+](=O)[O-])n2)cc1,-1,3,-2,i,-23,4,-4,6,
COc1ccc(N2CC(C(=O)N3CCC4(CC3)CC(=O)c3ccccc3O4)CC2=O)cc1 (centres undefined),-10,-18,-4,i,7,.,.,-3,
CCCC(=O)Nc1ccc(NC(=O)c2ccco2)c(OC)c1,-7,-1,.,i,-2,-3,8,11,
CCOc1ccc2oc(C(=O)OC(C(=O)NC(N)=O)C(C)C)c(C)c2c1 (centres undefined),-13,-3,-15,i,-11,19,6,-1,
O=C(CCCOc1ccccc1)NCCc1ccccc1,1,2,3,.,.,0,2,-7,
SMILES,MT1-MMP act inh,MT1-MMP act inh RFP,Env fusion inh,Rce1 inhib,Yeast UUG start,eIF4H inh,PABP polyA inh,CSC inhib,others
CCN(CC(=O)NCc1ccc(Cl)cc1)C(=O)c1ccc(S(=O)(=O)NCc2ccco2)cc1,3,-4,9,i,6,4,-3,-4,
COc1cc(/C=N/NC(=O)c2ccc(Cl)c(S(N)(=O)=O)c2)ccc1OCC(N)=O,-4,0,14,i,.,-10,-2,-19,
CCOc1ccc(NC(=O)N2CCC(c3nc4ccccc4[nH]3)CC2)cc1,-2,0,9,i,.,-1,-4,-3,
N#CC(C(=O)c1ccco1)c1ccccn1 (centres undefined),1,0,-41,.,-31,3,12,6,
C=CCOc1ccccc1CN1CCC(Oc2cc(C(=O)NC3CC3)ccc2OC)CC1,-2,2,-47,i,6,-8,-6,.,
Cc1ccc(S(=O)(=O)N2CCOCC2)cc1C(=O)OCC(=O)NC1CCS(=O)(=O)C1 (centres undefined),1,4,8,i,-15,5,-2,-2,
O=C(O)C1CCCCC1C(=O)Nc1ccc(Cl)cc1Cl (centres undefined),-6,-8,-79,.,-5,-2,1,-7,
CN1CCOc2ccc(S(=O)(=O)NCCc3ccc(Cl)cc3)cc21,-3,2,-1,i,-19,-12,0,-3,
O=C(COC(=O)c1ccncc1)Nc1ccc2c(c1)OCO2,1,1,8,.,-17,.,.,.,
Nc1c(Cl)cc(Cl)cc1C(=O)OCC(=O)N1CCCC1,-1,2,-13,i,-21,-8,0,.,
